LASV entry inh: blocks Lassa virus binding to or entry into cells; Potency, µM (titrated, usually from 37.9 µM), inactives show at the highest dose activity change, negative = inhibition, actives largely listed as inhibitors; AID 540256; 1.2% of 300,000 active; Lassa virus pseudotype entry inhibition, cell reporter; control for the full effect not named in the record; active means well fitted inhibition curve with a large enough effect; inconclusive means small, poorly fitted or top-dose-only effect, or effect the other way; inactive means flat fitted curve, though single readings scatter; tested in HEK293 cells; further: on the % scale 0 is the no-effect control and ±100 the full control effect; nearly all actives have a fitted effect of over 50% in size; luciferase read-out
NS1 function inh: blocks influenza NS1 protein function. AID 2326. 0.4% of 270,000 active. S. cerevisiae slowed by influenza A NS1, growth recovery by OD600. Potency, µM (series often up to 46.1 µM), inactives show at the highest dose activity, positive = more growth; further: actives are rising curves; nearly all actives have a fitted effect of over 50% in size
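S. cerevisiae expressing influenza A NS1, grown in glucose, washed, then diluted 1:100 into pH 6.0 -URA galactose medium with 23 nl compound. Growth recovery read as OD600; NS1-free strain serves as control.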
RE007 growth inh: less growth of the S. pombe RE007 Vpr strain; S. pombe RE007 Vpr strain, BacTiter-Glo ATP luminescence, 24 h; control for the full effect not named in the record; Potency, µM (series often up to 92.2 µM), without a hit: top-dose activity change, negative = less growth; 0.21% of 360,000 active; AID 651644; active = well fitted falling curve with a large enough effect; inconclusive = small, poorly fitted or top-dose-only effect; inactive = no such curve, though single readings can be large or run the other way;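 further: on the % scale 0 is the no-effect control and ±100 the full control effect; nearly all actives have a fitted effect of over 50% in size; the assay follows cell death caused by Vpr and the record does not say whether a fall means rescue or toxicity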
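Fission yeast strain RE007, carrying one chromosomally integrated HIV-1 vpr copy, was seeded at OD 0.01 in PMG+AL medium with 23 nL pinned compound. After 24 h at 30 °C and 99% humidity, viability was read by BacTiter-Glo luminescence.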
StopGo reporter: lowers the luciferase signal of an FMDV 2A StopGo reporter. human cells with a luciferase reporter of 2A StopGo recoding; control for the full effect not named in the record. Potency, µM (series often up to 57.9 µM), for the others: top-dose signal change, negative = less light. 1.2% of 410,000 active. AID 1159524; active = well fitted falling curve with a large enough effect; inconclusive = small, poorly fitted or top-dose-only effect; inactive = no such curve, though single readings can be large or run the other way; tested in HEK293T cells; further: on the % scale 0 is the no-effect control and ±100 the full control effect; nearly all actives have a fitted effect of over 45% in size; luciferase light after 4 h
Cruzain inh noDet: cruzain (T. cruzi) inhibition without detergent | P25779 | purified cruzain, Z-FR-AMC fluorescence, no detergent | Potency, µM, inactives show max response, negative = inhibition, usual class: inhibitors | 2.3% of 200,000 active | AID 1476; active means well fitted curve in the direction sought with a large enough effect; inconclusive means small, poorly fitted or top-dose-only effect, or another doubt; inactive means no such curve, though single readings can be large; an effect the other way counts as inactive or inconclusive;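 further: plate controls were enzyme without inhibitor for no effect and buffer without enzyme for full effect; nearly all actives have a fitted effect of over 40% in size; top concentration of the series not given in the record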
Target sequence (P25779 123-467 limits assumed): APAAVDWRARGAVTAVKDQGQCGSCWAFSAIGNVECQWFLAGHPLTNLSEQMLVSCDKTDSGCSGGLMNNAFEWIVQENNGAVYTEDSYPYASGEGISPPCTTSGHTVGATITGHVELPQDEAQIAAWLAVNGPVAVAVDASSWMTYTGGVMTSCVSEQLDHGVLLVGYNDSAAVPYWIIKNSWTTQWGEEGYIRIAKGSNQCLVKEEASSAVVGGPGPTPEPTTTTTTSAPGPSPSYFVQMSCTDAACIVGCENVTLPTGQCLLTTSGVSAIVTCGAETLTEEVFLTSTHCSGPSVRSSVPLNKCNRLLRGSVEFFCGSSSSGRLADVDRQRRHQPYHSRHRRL
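Detergent-free condition (0.00005% Triton X-100) in acetate buffer pH 5.5 with DTT. 1.5 nM enzyme and compound were pre-mixed 15 min, then 2 uM Z-FR-AMC substrate added; reaction progress from fluorescence change between first and third reads (60 s).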
Cruzain Triton: blocks cruzain activity in presence of Triton detergent | 0.43% of 200,000 active | purified cruzain, Z-FR-AMC fluorescence, 0.01% Triton | Potency, µM, inactives show max response, negative = inhibition, usual class: inhibitors; active means well fitted curve in the direction sought with a large enough effect; inconclusive means small, poorly fitted or top-dose-only effect, or another doubt; inactive means no such curve, though single readings can be large; an effect the other way counts as inactive or inconclusive;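 further: plate controls were neutral wells for no effect and buffer without enzyme for full effect; nearly all actives have a fitted effect of over 40% in size; top concentration of the series not given in the record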
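15 min RT preincubation of 1.5 nM cruzain with compound, then 2 uM Z-FR-AMC added; kinetic AMC fluorescence, 60 s delta. Triton X-100 0.01%, pH 5.5.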
MARV entry inh: blocks Marburg virus binding to or entry into cells; Marburg virus pseudotyped entry inhibition, cell reporter; control for the full effect not named in the record; about a third of the inactives were read at about 46 µM; Potency, µM (doses to about 37.8 µM), without a hit: at the highest dose activity change, negative = inhibition, most hits filed as inhibitors; 1.8% of 300,000 active; active = well fitted inhibition curve with a large enough effect; inconclusive = small, poorly fitted or top-dose-only effect, or effect the other way; inactive = flat fitted curve, though single readings scatter; tested in HEK293 cells; about a fifth of its hits are not listed in these tables; further: on the % scale 0 is the no-effect control and ±100 the full control effect; luciferase read-out
SARS PLpro yeast: blocks SARS-CoV papain-like protease in a yeast assay; S. cerevisiae expressing SARS-CoV PLpro, growth rescue; control for the full effect not named in the record; Potency, µM (series often up to 32.9 µM), without a hit: at the highest dose activity, positive = growth rescue; 0.19% of 330,000 active; further: 0% is about no effect; nearly all actives have a fitted effect of over 55% in size; growth read by luminescence after 48 h
The depositor's hits bear a star; ? = inconclusive; . = not tested or not shown; & = joins results of further samples; [ ] = remark or other dose. Unless noted, the call rests on the fitted dose curve; in most records, active means well fitted rising curve with a large enough effect; inconclusive means small, poorly fitted or top-dose-only effect; inactive means no such curve, though single readings can be large or run the other way. Potency means the concentration at half of the fitted maximal effect.

Order of values: LASV entry inh	NS1 function inh	RE007 growth inh	StopGo reporter	Cruzain inh noDet	Cruzain Triton	MARV entry inh	SARS PLpro yeast
CC(C)CNS(=O)(=O)c1cc(C(=O)OC2CCOC2=O)c(Cl)cc1Cl (configuration not stated)
    .	-8%	-7%	14%	.	.	14%[46.1 µM]	0%
O=C(N/N=C/C(Cl)=C/c1ccccc1)c1ccccc1F
    -29%[46.1 µM]	-32%	-2%	28%	.	.	?	-7%
Cc1noc(C)c1COC(=O)c1cc(=O)[nH]c2ccccc12
    14%	1%	4%	0%	-8%	0.2%	24%	1%
Clc1cncc(Cl)c1NNc1c2ccccc2nc2ccccc12
    -4%	-10%	-10%	-17%	?	-0.9%	-23%	-5%
CCCn1c2ccc(F)cc2c2nnc(SCCN3CCOCC3)nc21
    5%[46.1 µM]	3%	-3%	-16%	.	.	19%[46.1 µM]	0%
CCCCN(CC)CCCNC(=O)c1ccc2c(c1)N(Cc1ccc(C)cc1)C(=O)c1ccccc1S2
    ?	.	.	?	9%	0.1%	.	.
CCOC(=O)c1ccc(NC(=S)N(CCN2CCCCCC2)Cc2cccs2)cc1
    ?	-5%	-6%	21%	.	.	8.9µM*	1%
COc1ccc(NC(=O)N2CCc3c([nH]c4ccc(OC)cc34)C2c2ccc(OC)cc2)cc1 (configuration not stated)
    ?	.	.	-16%	?	-6.4%	.	.
Cc1ccccc1NC(=O)c1c(C)nc(SCC(=O)OCc2ccccc2)c(C#N)c1-c1ccc(F)cc1
    2%	-5%	-13%	0%	?	-3.3%	?	-18%
O=C(Nc1nc(-c2ccccc2)cs1)c1cccc([N+](=O)[O-])c1C(=O)O
    16%[46.1 µM]	11%	-10%	4%	-1%	-4.7%	?	21%
COc1ccc(NCC(O)Cn2cnc3c2c(=O)n(C)c(=O)n3C)cc1 (configuration not stated)
    ?	10%	2%	0%	-2%	0.9%	-11%	12%
CCCCN(C)C(=O)c1cn(-c2cccc(OC)c2)c(=O)c2ccccc12
    -5%[46.1 µM]	-1%	-5%	-1%	.	.	?	0%
CCc1ccccc1NC(=O)Nc1cc(C(=O)NCc2ccccc2OC)ccc1N1CCCC1
    28%[46.1 µM]	.	.	-5%	-7%	-0.5%	.	.
O=C(Nc1ccc(-c2csnn2)cc1)C(Cl)(Cl)Cl
    .	-2%	2%	-1%	.	.	.	-2%
CCn1ccnc1CN(C)Cc1cn(-c2ccc(C)cc2)nc1-c1cccc(C)c1
    ?	3%	-2%	?	.	.	?	0%
CCCCN(CC)CCNC(=O)Cn1cnc2sc(C)c(S(=O)(=O)N3CCC(C)CC3)c2c1=O
    -7%&-8%[46.1 µM]	15%	4%	-7%&0%	-5%	1.7%	0%&7%[46.1 µM]	9%
Cc1ccc(-n2c(=O)c3sc4ccccc4c3n(C)c2=O)cc1F
    -2%[46.1 µM]	.	.	1%	3%	0.0%	?	.
C=CCNC(=O)C1CC1(c1ccc(C)cc1)c1ccc(C)cc1 (configuration not stated)
    -23%	-49%	-3%	1%	.	.	?	-13%
Cc1ccc2[nH]c(C(=O)N/N=C/c3ccccc3C(=O)O)c(-c3ccccc3)c2c1
    .	?	-1%	-15%	.	.	.	-1%
O=C(NCCCCc1ccccc1)C1CC(c2cc(C(F)(F)F)cc(C(F)(F)F)c2)=NO1 (configuration not stated)
    .	2%	2%	-7%	.	.	.	0%
CCc1nnc2n1N=C(c1ccc([N+](=O)[O-])cc1)CS2
    -1%	0%	-10%	-5%	.	.	1%	1%
COC(=O)C1CN(C(=O)c2ccc(OC(F)F)cc2)c2ccccc2O1 (configuration not stated)
    18%	4%	4%	2%	.	.	7%[46.1 µM]	0%
Cc1cc(C(F)(F)F)n(-c2nc(C(=O)NN)cs2)n1
    0%[46.1 µM]	.	2%	-9%	.	.	4%[46.1 µM]	0%
O=C(CN(c1ccc(F)cc1)S(=O)(=O)c1ccc2c(c1)OCCO2)NCC1CCCO1 (configuration not stated)
    -29%	-4%	-14%	3%	3%	0.7%	3%	-5%
O=C(Nc1nnc(-c2ccncc2)o1)c1cccc(N2C(=O)CCC2=O)c1
    -2%	.	3%	5%	.	.	13%[46.1 µM]	1%
CC1CCc2c(sc(NC(=O)c3nc4ncccn4n3)c2C#N)C1 (configuration not stated)
    .	?	-11%	35%[activator]	.	.	.	1%
Cc1cc(NC(=O)CSc2nc3ccc(Cl)cc3[nH]2)no1
    -2%	-2%	12%	-28%	-5%	-5.7%	0%	7%
CCc1nc(SCC(=O)Nc2ccc3c(c2)OCCO3)c2oc3ccccc3c2n1
    -5%	-1%	5%	8%	-9%	6.6%	0%	-3%
COc1cc(OC)c(NS(=O)(=O)c2cc3c(cc2C)N(C(C)=O)CCO3)cc1Cl
    ?	.	.	57%[activator]	3%	-1.3%	.	.
COc1ccc(C2CC(=O)c3cc(-c4nc(-c5ccc(Cl)cc5)cs4)c(=O)[nH]c3C2)cc1 (configuration not stated)
    2%[46.1 µM]	.	.	-8%	?	4.4%	?	.
CCc1ccc2nc(N=C(N)N)nc(C)c2c1
    -5%	.	2%	?	.	.	?	-1%
CCCCCCCCCS(=O)(=O)Nc1cc(C)ccn1
    19%	3%	17%	25%	12%	-7.2%	?	1%
Cc1cc(C)c(-n2c(O)c(C=NCCN3CCOCC3)c(=O)[nH]c2=O)c(C)c1
    -4%	28%	-7%	-14%	-6%	0.7%	?	-3%
CC(C)C[C@H](NC(=O)c1nc[nH]c1C(=O)N[C@@H](CC(C)C)C(=O)OC(C)(C)C)C(=O)OC(C)(C)C
    .	-7%	15%	40µM*	.	.	.	-4%
O=c1ccc2cc(S(=O)(=O)Nc3ccc(F)cc3)ccc2o1
    -19%	-13%	-3%	-10%	1%	-0.4%	-6%	-4%
COc1ccc(NC(=O)CSc2nnc(CNC(=O)COc3ccc(Cl)cc3)o2)c(OC)c1
    ?	-1%	-9%	-1%	9%	0.4%	1%&15%	7%
O=C(Nc1ccc(N2CCOCC2)cc1)c1cnsn1
    .	-5%[9.22 µM]	.	28µM*	-1%	3.4%	4%	-6%
COc1ccc(CN(C(=O)CCC(=O)Nc2cc(C)on2)C(C(=O)NC(C)(C)C)c2cccc(OC)c2OC)cc1 (configuration not stated)
    27%[46.1 µM]	6%	-9%	-4%	.	.	-16%[46.1 µM]	5%
CC(=O)c1ccc(OCC(O)CN2CCN(c3ccccn3)CC2)cc1 (configuration not stated)
    .	1%	-6%	-19%	-4%	6.3%	.	-9%
O=C1Cc2ccccc2Sc2c(OCCN3CCCCC3)cccc21
    ?	12%	-6%	-5%	-2%	-3.1%	?	18%
CCN(CC)CCN(C(=O)c1ccc2c(c1)CCCC2)c1nc2ccc(OC)cc2s1
    -22%	-27%	-11%	?	.	.	?	-2%
CC(/C=N/NC(=O)CSc1nc(C)cc(C)n1)=C\c1ccccc1
    -10%	-7%	9%	?	2%	-7.8%	0%	-29%
CC(=O)N=c1sccn1CC(O)c1ccccc1 (configuration not stated)
    .	-2%	8%	-20%	.	.	.	0%
COC(=O)c1cnc(N2CCOCC2)nc1C(F)(F)F
    15%	0%	0%	0%	.	.	-12%	0%
CC(C)CCn1c(C(C)O)nc2ccccc21 (configuration not stated)
    -1%	-1%	-19%	-17%	-3%	3.5%	0%	-2%
Cc1ccc(S(=O)(=O)N(C)c2ccc(C)c([N+](=O)[O-])c2)cc1
    ?	.	-7%	-13%	.	.	?	-3%
c1ccc2c(-c3nc(-c4ccncc4)no3)cccc2c1
    70%[14.3 µM]	-22%	4%	67%[activator]	-5%	-8.8%	-2%	-3%
CC1CCN(C(=O)Cn2c(SCC(=O)Nc3nccs3)nc3ccccc32)CC1
    -23%	-9%	-1%	?	-10%	-7.8%	-28%	9%
O=C(O)CCC(=O)N1CCN(c2cccc(Cl)c2)CC1
    ?	2%	-6%	9%	-8%	0.5%	17%	-1%
CCCS(=O)(=O)c1c(S(=O)(=O)CCC)c2cnccn2c1C(=O)c1ccc(CC)cc1
    6%	4%	18%	-15%	?	-8.7%	-1%	6%

New compounds follow.
Order of values: LASV entry inh	NS1 function inh	RE007 growth inh	StopGo reporter	Cruzain inh noDet	Cruzain Triton	MARV entry inh	SARS PLpro yeast
Cc1cc(-c2c(C(=O)N3CCOCC3)c(C)nn2-c2ccccc2)no1
    8%	-2%	5%	-3%	.	.	22%	0%
COCc1ccc([C@@H]2C[C@H]3CN(Cc4ccccc4C)C(=O)[C@]34CCCN24)o1
    .	0%	5%	39%[activator]	.	.	.	0%
Cc1ccc(NC(=O)CSc2nnc(-c3nnn(-c4ccc(F)cc4)c3C)o2)cc1Br
    23%[46.1 µM]	.	.	3%	-12%	-4.3%	?	.
Cc1cccc(-n2ncc3c(N4CCc5ccccc54)ncnc32)c1
    .	7%	.	.	-18%	3.1%	.	2%
COc1cc(C2c3[nH]c4ccccc4c3C[C@H]3C(=O)N(CCO)CC(=O)N23)cc(OC)c1OC (some centres not stated)
    -29%	8%	7%	-1%	.	.	18%	1%
CCOC(=O)c1c(NC(=O)CSc2ncnc3ccccc23)sc(C)c1C
    ?	-8%	-14%	?	12%	-1.2%	9%	-1%
CC1CCCCC1NC(=O)CCNS(=O)(=O)c1ccc(Cl)cc1 (configuration not stated)
    0%[46.1 µM]	-26%	0%	-10%	.	.	12%[46.1 µM]	1%
